# Screening results: PubChem BioAssay, National Center for Advancing Translational Sciences (NCATS)
# FEN1 inhibitor: blocks human flap endonuclease 1. P39748. actives 0.35% (n = 390,000). Recombinant FEN1 flap cleavage, fluorescence, 15 min. Potency, µM (titrated, usually from 114 µM), for inactives: top-dose activity change, negative = inhibition, most hits filed as inhibitors; note: nearly all actives have a fitted effect of over 65% in size
# Target sequence (P39748 whole entry, looked up): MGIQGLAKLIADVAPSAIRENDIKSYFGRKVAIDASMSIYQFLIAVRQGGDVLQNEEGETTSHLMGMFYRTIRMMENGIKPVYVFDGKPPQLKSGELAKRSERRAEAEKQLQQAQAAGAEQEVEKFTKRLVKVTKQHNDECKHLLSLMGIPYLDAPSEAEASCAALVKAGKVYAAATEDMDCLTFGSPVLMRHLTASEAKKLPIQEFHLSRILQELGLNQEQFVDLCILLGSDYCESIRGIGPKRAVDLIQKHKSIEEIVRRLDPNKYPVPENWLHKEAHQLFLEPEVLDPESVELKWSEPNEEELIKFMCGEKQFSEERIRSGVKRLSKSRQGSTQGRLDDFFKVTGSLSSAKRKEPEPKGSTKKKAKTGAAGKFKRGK
#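 Compounds are tested as a concentration series against 10 nM FEN1; after a 15 min room-temperature preincubation, 50 nM substrate starts cleavage, with plate reads at 0 and 15 min. Normalized responses are fitted by a Hill equation.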
# N370S GC: inhibits or activates N370S mutant glucocerebrosidase; P04062; N370S GC spleen homogenate, 4MU-glucoside fluorescence; Potency, µM (series often up to 59.4 µM), without a hit: at the top dose activity change, negative = inhibition, actives largely listed as inhibitors; actives 0.092% (n = 330,000); AID 2101;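 note: 0% = full enzyme activity and -100% = no enzyme basal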
# Active calls of the source: *; ? = inconclusive; · = no result given; [ ] = dose if it differs, or a comment. Calls come from the whole dose curve; as a rule, active = well fitted curve in the direction sought with a large enough effect; inconclusive = small, poorly fitted or top-dose-only effect, or another doubt; inactive = no such curve, though single readings can be large; an effect the other way counts as inactive or inconclusive. Unless noted, % is set by controls: 0 for no effect and ±100 for the full control effect; potency is the fitted concentration of half-maximal effect.
SMILES,FEN1 inhibitor,N370S GC
COc1ccc(-c2cn3c(n2)sc2cc(C(=O)Nc4ccc(F)cc4)ccc23)cc1,-4%,·
Cc1ccc(C)c(-n2c(CNC(=O)c3ccco3)nnc2SCC(=O)Nc2nccs2)c1,0%,-7%
CC1CC(C)CN(C(=O)CN2C(=O)NC(c3ccccc3)(c3ccccc3)C2=O)C1 (centres undefined),-7%,·
CCOC(=O)c1cccc(NS(=O)(=O)c2ccc(NC(C)=O)cc2)c1,-2%,-13%
CC(C)(Oc1ccc([C@@H]2CC2(Cl)Cl)cc1)C(=O)O,·,-1%[21.6 µM]
S=C(c1ccc(Cl)cc1)N1CCN(Cc2ccccc2)CC1,-9%,-5%
COc1ccc(N2CCN(C(=O)Cc3ccc(S(=O)(=O)N4CCOCC4)s3)CC2)cc1,-20%,-7%
CC(=O)N1CCN(Cc2ccc(Br)s2)CC1,-15%,8%
Cc1cccc(OCC2CCCN(Cc3nc(C4CC4)no3)C2)c1 (centres undefined),5%,-1%
Cc1cnn(-c2cc(N/N=C/c3cccc(F)c3)ncn2)c1,-6%,10%
O=C(NCc1cccc(Cl)c1)c1ccco1,10%,0%
Cc1[nH]nc(SCC(=O)N2CCCC2)c1[N+](=O)[O-],-1%,5%
CCCCCCc1cc2cc(-c3cn4c(n3)sc3cc(OC)ccc34)c(=O)oc2cc1O,-2%,·
CCOC(=O)c1ccc(NC(=O)CSc2nc3c(c(=O)n2CC)SC(C)C3)cc1 (centres undefined),-11%,?
COC(=O)C(C)Sc1nnc(Cc2cc(=O)[nH]c(=O)[nH]2)n1-c1cccc(OC)c1 (centres undefined),20%,5%
COCCCN(C(=O)C(C)Oc1ccc(Br)cc1)c1c(N)n(Cc2ccccc2)c(=O)[nH]c1=O (centres undefined),-2%,-24%
CCN(CC)S(=O)(=O)c1ccc(N2CCOCC2)c(NC(=O)COc2ccc(OC)cc2)c1,-17%,·
CCOc1ccc(CCNC(=O)c2cc3c(s2)CS(=O)(=O)C3)cc1OCC,-6%,1%
COc1ccc(C(=O)N(C)Cc2cnn(Cc3ccccc3)c2)cc1S(=O)(=O)N1CCOCC1,20%,·
COC(=O)c1ccc(NC(=O)CCc2nnc3ccc(N4CCC5(CC4)OCCO5)nn23)cc1,0%,-2%
CCN(CC)c1ccc(CNC23CN4CN(CN(C4)C2)C3)cc1,-8%,-7%
CCc1ccc(N(C(=O)c2csnn2)C(C(=O)NC(C)(C)CC)c2cccnc2)cc1 (centres undefined),-6%,-11%
COc1ccc(-n2ccnc(SCC(=O)NC3CCCCC3)c2=O)cc1,1%,3%
COc1ccc(C)cc1NC(=O)c1ccc(S(=O)(=O)N2CCCCC2)cc1,-11%,-1%
Fc1ccc(-c2nc3cnccn3c2NC2CCCC2)cc1,4%,4%
Cc1ccc(-c2ccnc3[nH]n(-c4ccccc4)c(=O)c23)cc1,-2%,0%
O=C1CCCN1S(=O)(=O)c1ccc(F)cc1,-1%,-2%
OCCN(Cc1ccccc1)Cc1ccccc1O,-10%,1%
O=C(O)CS(=O)CC(=O)Nc1cccc(C(F)(F)F)c1 (centres undefined),-2%,14%
COc1ccc(Cl)c(NC(=O)NCCN2CCN(c3ccccc3)CC2)c1,0%,?
COc1ccc(-c2csc3ncnc(NCCN4CCOCC4)c23)cc1,3%,-5%
O=C(CN1CCN(S(=O)(=O)/C=C/c2ccccc2)CC1)NC(=O)NCc1ccco1,-13%,?
CN(C)CCNc1oc(COc2ccc(Cl)cc2Cl)nc1C#N,0%,5%
Cn1c(=O)c2c(SCc3c(F)cccc3Cl)nc(CC(C)(C)C)nc2n(C)c1=O,-17%,27%
C[C@H](CO)N1C[C@H](C)[C@@H](CN(C)CC2CCCCC2)Oc2c(NC(=O)C3CC3)cccc2C1=O,-21%,·
O=C(O)C1CCN(c2ncccn2)CC1,8%,8%
COc1ccc(NC(=O)CSc2c3c(nc4cc(Cl)ccc24)CCCC3)cc1OC,-11%,6%
COc1cc2c(cc1OC)CN(C(=S)Nc1c(C)cccc1C)CC2,0%,-7%
CCCCOc1ccc(-c2nnn(CCC(=O)N3CCOCC3)n2)cc1,-13%,6%
O=C(N/N=C\c1ccccn1)C1c2ccccc2Oc2ccccc21,1%,?
COCCNC(=O)c1ccc2c(c1)N(Cc1cc(C)ccc1C)C(=O)c1ccccc1S2(=O)=O,-18%,·
O=C(NCc1cccc(Cl)c1)C1CCC(=O)N(C2CC2)C1 (centres undefined),-8%,-21%
O=C(NCCCO)c1ccc(CSc2nc3ccccc3c(=O)[nH]2)cc1,2%,12%
Cc1ccccc1Cn1c(=O)n(CCc2ccccc2)c(=O)c2c(C)c(C)sc21,4%,·
COc1ccc(S(N)(=O)=O)cc1C(=O)OCC(=O)Nc1sccc1C#N,-9%,·
C=CCNS(=O)(=O)c1ccc(OCC(=O)OC)cc1,-14%,-15%
CC(C)c1ccccc1NC(=O)c1ccccc1NC(=O)C1CCCCC1,-14%,5%
COc1cc(C(=O)N/N=C/c2cn(Cc3cccc(F)c3)c3ccccc23)ccc1O,10%,-22%
Cc1nc([N+](=O)[O-])cn1CC(=O)NCCCO,-3%,25%
Cc1ccc(-n2c(C)cn(C(=O)c3ccccc3)c2=S)cc1,-6%,?
CCCCOC(=O)N1CCOCCOCCOCC1,4%,2%
CCOc1cc(C(=O)OC(C)C(=O)Nc2ccc(NC(C)=O)cc2)ccc1OCC(=O)N1CCCCC1 (centres undefined),10%,-6%
CC(C)(C)NC(=O)c1cnn(-c2ccccc2)c1C1CCN(C(=O)OC(C)(C)C)CC1,7%,·
COc1ccc(CCN2C(=O)c3oc4cc(C)cc(C)c4c(=O)c3C2c2ccc(F)cc2)cc1OC (centres undefined),-10%,·
COc1cc(-c2ccno2)ccc1S(=O)(=O)N1CCN(c2ccccc2)CC1,-7%,·
S=C(NCCc1ccccc1)Nc1ccccc1Cl,1%,2%
O=C1CCSC2(C(=O)N(Cc3ccc(F)cc3)c3ccccc32)N1c1ccc(Cl)cc1 (centres undefined),3%,·
CN(C(=O)CCNC(=O)N1CC(=O)Nc2ccccc21)C1CCCCC1,-12%,3%
Cc1c(NC(=O)/C(=C\c2ccccc2)NC(=O)c2ccccc2)c(=O)n(-c2ccccc2)n1C,-3%,0%
CN(C)c1nc(N)nc(CSc2nnnn2-c2ccccc2)n1,2%,7%

# Remaining list, next part
SMILES,FEN1 inhibitor,N370S GC
Cc1cccc(-n2ncc3c(NCCOCCO)ncnc32)c1,-2%,·
C/C(N)=C(/C#N)C(=O)COC(=O)c1ccncc1,0%,-7%
CC(=O)c1ccc(S(=O)(=O)N2CCCC(N(C)CCc3ccccc3)C2)cc1 (centres undefined),44%[activator],2%
Cc1c(C(=O)OCCOC(C)C)[nH]c2c1C(=O)CC(C)(C)C2,-2%,12%
COc1ccc(C2(C(F)(F)F)NC(=O)N(C)C(=O)N2C)cc1 (centres undefined),0%,2%
Nc1cccc(S(=O)(=O)NC2=NCCC2)c1,10%,13%
COc1ccccc1N1CCSC1C(N)=O (centres undefined),-14%,10%
CC(=O)Nc1ccc(NC(=O)CSc2nnc(-c3ccc4c(c3)OCO4)o2)cc1,-2%,·
Cn1c(COc2ccccc2)nc2ccccc21,-6%,-3%
O=C(Nc1nncs1)c1ccc(N2C(=O)C3C4C=CC(C4)C3C2=O)cc1 (centres undefined),-6%,-1%
CCOC(=O)C1C2C=CC3(CN(CCc4ccccc4)C(=O)C13)O2 (centres undefined),3%,2%
Cc1ccc(C)c(S(=O)(=O)NCC(c2ccco2)N2CCc3ccccc3C2)c1 (centres undefined),4%,-1%
Cc1c(C(=O)N2CCCCC2)sc(N)c1C#N,-2%,8%[2.35 µM]
COc1ccc(CCNC(=O)c2ccc(CN3CCC(Cc4ccccc4)CC3)cc2)cc1OC,3%,-6%
COc1ccc(NC(=O)CNC(=O)c2c(C)nn(C)c2Cl)cc1,3%,3%
COCCCN1C(=O)c2ccc(C(=O)OCC(=O)N(C)c3ccccc3)cc2C1=O,13%,-11%
Cc1cccc(N2CC(C(=O)O)CC2=O)c1 (centres undefined),2%,4%
COc1cccc(C2C(C(N)=O)=C(C)Nc3nc(-c4ccccc4Cl)nn32)c1 (centres undefined),22%,-8%
CSc1ccc(C2C(C(=O)c3ccco3)=C(O)C(=O)N2c2nnc(SC)s2)cc1 (centres undefined),4%,0%
Cc1cccc(C(=O)Nc2ccccc2SCC2CSc3nc4ccccc4c(=O)n32)c1 (centres undefined),-11%,1%
COc1ccc2c(c1)CCc1c(C(=O)N3CCCc4ccccc43)noc1-2,-17%,12%
COc1ccc(-n2nc3c(c2NC(=O)C(C)C)CSC3)cc1,-10%,-3%
CC(=O)c1ccc(OCC(O)CN2CCN(CCN3C(=O)c4cccc5cccc(c45)C3=O)CC2)cc1 (centres undefined),?,-4%
COc1ccc(S(=O)(=O)N(C)CC(=O)NCCN2CCOCC2)cc1Cl,4%,-4%
O=C(Nc1nc2ccccc2[nH]1)C1CCCO1 (centres undefined),1%,-6%
Cc1cc(C)n2c(Nc3ccccc3C)c(-c3cccs3)nc2n1,-3%,·
Cc1[nH][nH]c(=O)c1C(c1ccc(-c2ccc(C(=O)O)cc2)o1)c1c(C)[nH][nH]c1=O,-21%,-8%
CCC(c1c(C)n(C)n(-c2ccccc2)c1=O)c1c(C)n(C)n(-c2ccccc2)c1=O,7%,3%
COC(=O)COc1cccc(NC(=O)c2ccccc2)c1,-11%,-3%
Cc1nnc(SCC(=O)NCc2ccc3c(c2)OCO3)s1,-8%,0%
CCN1CCN(c2ccc(S(=O)(=O)N3CCCCC3)cc2NC(=O)COc2cc(C)ccc2Cl)CC1,-6%,?
O=C(COc1coc(CN2CCc3ccccc3C2)cc1=O)Nc1cccc(Cl)c1,-3%,0%
CC(C)(C)c1nnc(NC(=O)c2ccc(Cl)nc2)s1,10%,8%
Cc1ccc(-n2c(=O)c3ccccc3n(CC(=O)C(C)(C)C)c2=O)cc1,-4%,1%
COc1ccc(-c2sc3ccc(N4CCOCC4)cc3c2C#CCO)cc1,0%,·
CCOc1c2ccc(C(=O)NCCc3cccs3)cc2nn1CC,-6%,9%
Cc1ccccc1OCc1nnc(SCC(=O)Nc2ccc(N3CCOCC3)cc2)n1C,11%,2%
O=C(OCC(=O)N1CCOCC1)c1ccc(Cl)cc1[N+](=O)[O-],-2%,-23%
NC(=S)Nc1ccc(F)c(F)c1F,17%,-1%
O=C(CN(CC1CCCO1)C(=O)CCC(=O)Nc1nccs1)NCC1CCCO1 (centres undefined),5%,-4%
N#CCCN(Cc1cccnc1)C(=O)Nc1ccccc1,2%,2%
O=C(OCC(=O)N1CCc2ccccc2C1)c1cccs1,2%,1%
COc1ccc(C)cc1S(=O)(=O)N(C)CC(=O)N1CCC(C(N)=O)CC1,1%,2%
O=C(COc1ccc(Cl)cc1)Nc1ccc2c(c1)nc1n2CCOC1,?,-12%
COc1ccc(-n2c(SCC(=O)NCc3ccc(Cl)cc3)nc3ccsc3c2=O)cc1,15%,·
Cc1noc(C)c1S(=O)(=O)NCCN1CCN(c2ccccc2)CC1,4%,3%
Cc1cc(Cl)ccc1OCc1nc(-c2ccc(-n3cccc3)cc2)no1,-8%,·
CC(=O)OCCNC(=O)c1cc2ccccc2oc1=O,-1%,-4%
CCc1ccc(NC(=O)N2CC(C)Oc3ccc(C)cc32)cc1 (centres undefined),6%,·
COc1ccc(NC(=O)c2nc3nccc(C)n3n2)cn1,-1%,20%
Cc1ccc(NC(=O)Nc2cnccn2)cc1C,4%,25%
N#CC1=C(N)Oc2n[nH]c(CSc3ccccc3)c2C12C(=O)Nc1ccccc12 (centres undefined),5%,-6%
O=C(Cn1c(=O)n(-c2ccc(Cl)cc2)c(=O)c2sc3ccccc3c21)NC1CCCCC1,-3%,·
O=C(c1cc([N+](=O)[O-])ccc1Cl)N1CCN(c2ccccn2)CC1,-3%,-4%
COc1ccc(S(=O)(=O)Nc2cccc(C)c2C)c2cccnc12,14%,-2%

# Not all compounds are listed, and most or all hits are left out here.
